# gsp antagonist: qHTS for Antagonists of gsp, the Etiologic Mutation Responsible for Fibrous Dysplasia/McCune-Albright Syndrome: qHTS; gsp-mutant cells, cAMP HTRF, 30 min; control for the full effect not named in the record; Potency, µM (highest dose often 76.9 µM), without a hit: at the highest dose activity change, negative = inhibition, usual class: inhibitors; 340,000 tested, 0.4% active; active = falling curve of any shape with a large fitted effect; inconclusive = falling curve, mostly with a smaller effect; inactive = flat or rising curve; cell line not stated here;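 note: intracellular cAMP measured with PDE inhibitor Ro 20-1724 present during compound exposure; potency is the fitted concentration of half-maximal effect; % is set by controls: 0 for no effect and ±100 for the full control effect; nearly all actives have a fitted effect of over 65% in size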
#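 Cells, 2000/well, grown 16–24 h in DMEM 10% FBS with 0.5 mg/ml G418, then compounds plus […] (300 uM addition stock), 30 min at 37C. cAMP read by HTRF (cAMP-d2 and anti-cAMP antibody-K in lysis buffer) after 30 min RT.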
# ClpP mod: qHTS Assay for Activators of ClpP | Potency, µM (doses to about 57.5 µM), without a hit: at the top dose activity change, negative = active | 340,000 tested, 1.9% active | ATP-dependent Clp protease proteolytic subunit (Bacillus subtilis (strain 168)), P80244 | purified B. subtilis ClpP, FRET peptide cleavage, 20 min; active = well fitted falling curve with a large enough effect; inconclusive = small, poorly fitted or top-dose-only effect; inactive = no such curve, though single readings can be large or run the other way; note: potency is the fitted concentration of half-maximal effect; the source files actives as falling curves though it sought activators and does not explain the sign; nearly all actives have a fitted effect of over 65% in size; many hits overshoot -100%
# Target sequence (P80244 whole entry, looked up): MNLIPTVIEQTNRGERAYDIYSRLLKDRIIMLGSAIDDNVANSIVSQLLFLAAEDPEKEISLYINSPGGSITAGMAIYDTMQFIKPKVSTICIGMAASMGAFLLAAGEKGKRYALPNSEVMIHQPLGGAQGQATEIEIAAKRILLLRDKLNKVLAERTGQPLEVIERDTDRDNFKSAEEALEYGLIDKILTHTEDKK
#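 FRET quenching reversal measured ClpP activation: 10 microg/mL B. subtilis ClpP at pH 8 with the FRET-FV decapeptide, read at 430 nm after 320 nm excitation. The 20-min minus 0-min signal was scaled between DMSO/no-enzyme wells and ADEP (5.8 microM final).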
# Menin-MLL FL inh: qHTS Assay for Inhibitors Targeting the Menin-MLL Interaction in MLL Related Leukemias: Competition With Fluorescein Labeled MLL-derived Peptide | Fluorescence polarization, fluorescein-MLL peptide displacement from menin | AID 1766, 2009 | 290,000 tested, under 10 active | FP activity change, % at 61.4 µM; inconclusive = falling polarisation curve, or a change in total fluorescence; inactive = total fluorescence flat and polarisation flat or rising; no compound was filed as active; the % refers to the polarisation; negative = inhibition;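 note: % of control where 0% means no effect; inhibitors lower the polarisation; unlabelled MLL peptide was the positive control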
# Sfp inh: qHTS Assay for Inhibitors of Bacillus subtilis Sfp phosphopantetheinyl transferase (PPTase); Potency, µM, for inactives: max response, negative = inhibition, most hits filed as inhibitors; Biochemical Sfp PPTase activity, qHTS; 4'-phosphopantetheinyl transferase ffp (Bacillus subtilis), Q9F4F7; AID 1490, 2009; 310,000 tested, 3.5% active; active = well fitted inhibition curve with a large enough effect; inconclusive = small, poorly fitted or top-dose-only effect, or another doubt; inactive = no such curve, though single readings can be large or run the other way;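 note: the enzyme is Sfp with the accession as filed and its product quenches rhodamine fluorescence; potency is the fitted concentration of half-maximal effect; 0% = enzyme reaction without inhibitor and -100% = no enzyme wells; top concentration of the series not given in the record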
#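 Reaction rates are the 30-min fluorescence difference (ex 525, em 598 nm) in wells containing 15 nM Sfp, 5 uM rhodamine-CoA and 12.5 uM BHQ-2-YbbR at pH 7.6 with 10 mM MgCl2.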
# TRPV1 potentiator: HTS Assay for Compounds that Act as Potentiators of the Vanilloid Receptor 1 | Transient receptor potential cation channel subfamily V member 1 (Homo sapiens), Q8NER1 | TRPV1-expressing cells, Fluo-8 calcium influx, capsaicin EC20 potentiation; host cell line not named in the record; control for the full effect not named in the record | potentiation, % at 8.33 µM | 320,000 tested, 0.02% active | AID 540277, 2011; active means potentiation above 80%; inconclusive means 30% to 80%; inactive means below 30%; note: 0% is about no effect
#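 Cells expressing TRPV1 were dye-loaded with Fluo-8 and read kinetically: 10 s baseline, 3 min after compound (agonist portion), then 2 min after EC20 capsaicin (allosteric enhancer portion). Calcium-bound dye fluorescence at 480/520 nm.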
# TRPML1 blocker: qHTS for Inhibitors of the Human Mucolipin Transient Receptor Potential 1 (TRPML1); TRPML1-inducible cells, Ca2+ dye fluorescence, FDSS; active compounds read low; inhibition of EC80 agonist-evoked calcium signal; activity change, negative = inhibition, % (concentration not given with the values); 390,000 tested, 0.02% active; in the data active means activity change below about -50%; inconclusive means about -30% to -50%; inactive means above about -30%;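 note: stimulus is agonist 54-4 at its EC80 concentration; % is set by controls: 0 for no effect and ±100 for the full control effect; the text of the record puts the active cut at -80%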
# Target sequence (Q9GZU1 whole entry, looked up): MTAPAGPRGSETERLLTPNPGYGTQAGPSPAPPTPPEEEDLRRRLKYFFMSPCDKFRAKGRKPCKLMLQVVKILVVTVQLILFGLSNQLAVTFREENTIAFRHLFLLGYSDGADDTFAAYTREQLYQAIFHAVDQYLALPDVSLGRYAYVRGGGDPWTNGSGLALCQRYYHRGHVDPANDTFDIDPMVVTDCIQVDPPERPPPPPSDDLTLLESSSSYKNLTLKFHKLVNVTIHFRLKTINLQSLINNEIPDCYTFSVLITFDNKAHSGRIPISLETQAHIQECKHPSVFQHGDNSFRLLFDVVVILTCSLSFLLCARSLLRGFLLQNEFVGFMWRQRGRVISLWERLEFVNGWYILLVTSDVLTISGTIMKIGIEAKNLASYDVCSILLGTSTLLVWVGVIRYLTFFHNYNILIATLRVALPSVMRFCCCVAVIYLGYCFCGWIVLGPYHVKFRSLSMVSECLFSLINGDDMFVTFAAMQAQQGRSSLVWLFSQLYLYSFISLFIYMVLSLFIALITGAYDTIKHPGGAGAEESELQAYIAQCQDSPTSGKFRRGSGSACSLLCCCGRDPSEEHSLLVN
#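 Calcium fluorescence in TRPML1-DL cells induced overnight with Tet: a 110 s read after compound pin addition, then a 110 s antagonist read after challenge with 54-4 at 4 uM final (EC80).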
# gsp agonist: qHTS for Agonist of gsp, the Etiologic Mutation Responsible for Fibrous Dysplasia/McCune-Albright Syndrome: qHTS; gsp mutant cells, cAMP HTRF, 30 min; control for the full effect not named in the record; Potency, µM (series often up to 76.9 µM), for inactives: at the highest dose activation (cAMP increase), actives largely listed as activators; 340,000 tested, 0.13% active; AID 624287, 2012; active = well fitted activation curve with a large enough effect; inconclusive = small, poorly fitted or top-dose-only effect, or another doubt; inactive = no such curve, though single readings can be large or run the other way; cell line not stated here;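 note: phosphodiesterase inhibitor Ro 20-1724 added with compounds to block cAMP breakdown; potency is the fitted concentration of half-maximal effect; nearly all actives have a fitted effect of over 60% in size; about a fifth of the inactives were tested at one dose only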
#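 Cells in DMEM/10% FBS with G418 were pretreated with compounds in DMSO plus […] (300 uM stock) for 30 min at 37C. cAMP was measured by HTRF (cAMP-d2 plus anti-cAMP antibody-K) after 30 min at room temperature.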
# * marks the source's active call; other numbers are inactive results; ? = inconclusive; / = no result given; & = joins results of further samples; [ ] = another dose, or the depositor's remark. An unsorted share of the library; 4.9% or so of the library scored in one or more.
SMILES,gsp antagonist,ClpP mod,Menin-MLL FL inh,Sfp inh,TRPV1 potentiator,TRPML1 blocker,gsp agonist
Fc1ccccc1N1CCN(Cc2nc(-c3ccccc3)no2)CC1,9%,2.5%,4.5,-3%,-6,-6,?
CCOC(=O)c1ccc(N2CSC3=C(C#N)C(c4cccs4)CC(=O)N3C2)cc1 (stereo not given),-2%,-0.2%,4.0,11µM*,/,1,4%
COc1ccc(CN2CCC(n3nccc3NC(=O)C3CCCC3)CC2)cc1,1%,-1.7%,/,3%,0,-3,22%
Cc1ccc(S(=O)(=O)N2CCCCC2)cc1NC(=O)Cn1ncc(Cl)c(Cl)c1=O,?,1.5%,/,/,/,-17,24%
O=C(O)CCC(=O)N1N=C(c2ccco2)CC1c1cccs1 (stereo not given),14%,?,8.8,7%,-1,2,0%
COc1ccc(N2CCC(CNC(=O)Nc3ccc(OC)cc3OC)C2)cc1 (stereo not given),-20%,-7.1%,11,-21%,-14,-11,-3%
COc1cccc(Nc2nc(=O)[nH]nc2C)c1,19%,-0.9%,-0.8,6%,?,16,-39%
CCOC(=O)c1c(-c2ccccc2)csc1NC(=S)N(CC)CC,-18%,/,1.7,-3%,13,-18,7%[15.4 µM]
COc1cc(/C=C/C(=O)Nc2ccc(C(C)=O)cc2)cc(OC)c1OC,6%,-13%,3.0,9%,-18,7,23%
COc1ccc(N2C(=O)C3ON(C4SC(=S)N(C)C4(C)C)C(c4ccc(Cl)cc4)C3C2=O)cc1 (stereo not given),10%,-1.4%,-1.9,9%,4,-19,-7%
CCOc1ccc(S(=O)(=O)NCCC(=O)N(C)CC(=O)Nc2ccc(N3CCOCC3)cc2)cc1,5%,-2.2%,/,/,3,6,-4%
COc1ccc(CNC(=O)CSc2nnc(C3CC3)n2C2CC2)cc1,9%,-24%,/,/,1,5,14%
O=C(NC1CCOc2ccccc21)c1ccc(Cl)nc1 (stereo not given),3%,/,-0.5,4%,20,20,21%
CS(=O)(=O)c1ccc2nc(NC(=O)c3ccccc3Br)sc2c1,4%,-5.8%,-4.6,0%,-7,4,-1%
N=c1c(-c2nc3ccccc3[nH]2)cc(C(=O)c2cccs2)nn1-c1ccccc1,23%,2.2%,-6.3,10%,17,6,12%
CCOc1ccc(NS(=O)(=O)c2ccc3c(c2)N(C(C)=O)CC3)cc1,/,/,6.2,-5%,-11,-13,2%[15.4 µM]
CC(C)NS(=O)(=O)c1ccc(OCC(=O)NCC2CCCO2)c(Cl)c1 (stereo not given),-3%,-2.6%,3.4,8%,19,11,-45%[inhibitor]
COc1ccc(C2/C=C\CN(S(=O)(=O)c3ccc(C)cc3)C(Cc3ccccc3)C(=O)N2Cc2ccc(F)cc2)cc1 (stereo not given),/,/,9.5,-5%,/,3,/
COc1cc(/C=N/NC(=O)c2ccc(O)cc2)ccc1Oc1ccc([N+](=O)[O-])cn1,?,/,-0.2,-10%,-10,1,-1%[15.4 µM]
C/C(=N/NC(=O)c1ccc(Br)o1)c1ccc(C)o1,8%,-12%,-3.3,-13%,9,16,13%
Cc1ccc(OCCCC(=O)Nc2ccc(S(=O)(=O)Nc3cc(C)on3)cc2)cc1,?,1.2%,-0.7,12%,18,-12,6%
COC(=O)c1[nH]c2cccc(OC)c2c1NC(=O)CCN1CCN(c2ccccc2F)CC1,/,/,3.5,17%,10,/,/
O=[N+]([O-])c1cccc(S(=O)(=O)N2CCCCC2c2cccnc2)c1 (stereo not given),0%,3.1%,-1.4,3%,-12,/,/
COc1ccc(-c2nnc(SCc3ccccc3F)o2)cc1OC,9%,0.8%,3.5,-9%,0,-13,0%
O=C(Cc1ccccc1)c1c[nH]c(C(=O)NCc2ccncc2)c1,3%,/,1.5,13%,-6,-6,12%[15.4 µM]
OC(CNC1CCCc2ccccc21)COc1ccc2ccccc2c1 (stereo not given),8%,0.2%,-1.9,-32%,-2,3,-8%
CCN1CCN(S(=O)(=O)c2ccc(S(=O)(=O)NC3CC3)cc2)CC1,-4%,0.9%,/,2%,4,-14,-12%
Cc1ccn(S(=O)(=O)c2ccc3oc(=O)ccc3c2)n1,0%,/,2.5,-12%,1,1,-5%
COc1ccc(C)cc1NC(=O)CCS(=O)(=O)c1cc2c(cc1Cl)NC(=O)CO2,6%,0.7%,-3.0,14%,-4,6,-6%
CCOC(=O)C1CCCN(C(=O)c2ccccc2[N+](=O)[O-])C1 (stereo not given),21%,/,1.0,-5%,12,6,-10%[15.4 µM]
COC(=O)c1ccc(N2CCN(C)CC2)c(NC(=O)COc2cccc(C)c2)c1,4%,/,0.3,16%,-36,0,13%
COc1ccc(N(CC(=O)N/N=C/c2ccco2)S(=O)(=O)c2ccccc2)cc1Cl,-19%,-2.3%,0.8,13%,1,-10,-6%
CC(=O)Oc1ccccc1C(=O)Oc1ccccc1C(=O)O,-3%,-9.8%,-0.4,10%&19%,-2,6,/
CCC(O)(C#CCN1CCCCC1)CC,12%,-2.6%,0.2,14%,5,10,20%
NC1=NC(c2ccc(Cl)cc2)N(c2ccc(S(N)(=O)=O)cc2)C(N)=N1 (stereo not given),5%,-0.6%,-0.1,12%,2,18,?
COc1ccc(C)cc1NC(=O)COC(C)=O,8%,-8.5%,-0.7,-15%,12,-12,6%
COCCn1c(-c2cc(OC)c(OC)c(OC)c2)nc2oc3ccccc3c(=O)c2c1=O,15%,4.0%,3.5,-5%,-17,0,0%
COc1ccc(CNC(=O)CN2CCN(S(=O)(=O)c3ccccc3)CC2)cc1,-3%,0.2%,/,/,-3,1,?
Cc1ccc(-n2nc3c(c2NC(=O)c2ccc(F)c(F)c2)CS(=O)(=O)C3)cc1,4%,28µM*,3.3,3%,-3,-1,-1%
CN(C)CCCN(C(=O)c1ccco1)c1nc2c(F)cccc2s1,21%,-1.1%,-0.9,11%,19,/,-33%
CCC1CCc2c(n(C)c3ccccc3c2=O)O1 (stereo not given),1%,-15%,1.8,9%,-1,-1,0%[15.4 µM]
COc1ccc2nc(NC(=O)CCNC(=O)c3ccco3)sc2c1,-4%,0.9%,/,/,4,21,-3%
CC(=O)NCc1cn2c(C)csc2n1,7%,-0.6%,-0.5,17%,15,25,?
C/C(=N\NC(=O)c1cc(-c2cccc(OC(C)C)c2)nc2ccccc12)c1cccnc1,-19%,-2.4%,-4.4,1%,7,2,19%
CC(=O)Oc1ccc2c(C)cc(=O)[nH]c2c1,7%,288%,-2.5,14%,-14,56,-16%
CN1CCCC2(CCCN(Cc3nc(Cc4cccc(C(F)(F)F)c4)no3)C2)C1 (stereo not given),4%,/,-5.3,13%,-4,-16,13%
COc1ccccc1N1CCN(S(=O)(=O)c2ccc3c(c2)NC(=O)C(C)S3)CC1 (stereo not given),-31%,0.6%,/,1%,-17,-5,10%
COc1ccc(OCC(N)=O)cc1,4%,-0.7%,-3.2,7%,1,-12,-29%
COc1ccc(CNCC(=O)Nc2cc(C)nn2-c2nc(C)cc(C)n2)cc1OC,7%,-3.1%,-1.2,-3%,15,4,?
CN(CC(=O)Nc1ccccc1Br)C(=O)CCC1CCCC1,10%,-1.1%,/,5%,-6,-1,8%
COc1cccc(-c2cc(C(=O)N3CCOCC3)no2)c1,4%,/,-6.2,7%,12,9,-13%
CC(C)(C)[C@H](N)C(=O)N[C@H]1CCC2C3CC=C4C[C@@H](O)CC[C@]4(C)C3CC[C@@]21C (stereo not given in full),11%,-1.1%,/,/,/,18,?
O=C(c1cc(-c2cccs2)on1)N1CCN(c2ccc(F)cc2)CC1,9%,1.9%,0.0,6%,16,-14,-31%[inhibitor]
COCCn1c(SCC(=O)Nc2nc3ccccc3s2)nnc1-c1ccoc1C,-12%,-1.5%,/,/,/,-6,-11%
CCc1noc(C)c1C(=O)Nc1cc(S(=O)(=O)N2CCCCC2)ccc1N(C)C,-1%,-1.5%,/,/,-9,-4,0%
NS(=O)(=O)c1cccc(NC(=S)NC(=O)C23CC4CC(CC(C4)C2)C3)c1,-14%,-0.6%,1.6,4%,-41,-12,-103%[inhibitor]
COc1ccccc1NC(=O)c1sc2ncn(Cc3cccc(C)c3)c(=O)c2c1C,14%,-0.1%,3.3,1%,13,-10,-13%
NCC1OC(n2cnc3c(N)ncnc32)CC1O (stereo not given),10%,-2.1%,/,/,/,51,?
O=C(COC(=O)CNC(=O)c1ccccc1F)Nc1nnc(-c2ccccc2)o1,-5%,/,/,/,-5,-5,-10%[15.4 µM]
CCOc1cc(/C=N/NC(=O)c2cc(-c3ccccc3)nc3ccccc23)ccc1O,-24%,/,-25,10%,1,-6,-17%
# (cont.)
SMILES,gsp antagonist,ClpP mod,Menin-MLL FL inh,Sfp inh,TRPV1 potentiator,TRPML1 blocker,gsp agonist
COc1ccccc1N1CCN(C2CCCN(C(=O)CCc3c(C)noc3C)C2)CC1 (stereo not given),6%,-2.6%,-7.5,2%,-6,-7,0%
COc1ccc(S(=O)(=O)n2[nH]c(=O)c(CCO)c2C)cc1,-2%,-0.7%,-2.1,5%,-8,1,?
CCOCCCn1c(=S)[nH]c2cc(C(=O)N3CCC(C(N)=O)(N4CCCCC4)CC3)ccc2c1=O,-12%,-6.4%,0.0,-10%,?,?,-7%[15.4 µM]
COCCn1c(=O)[nH]c2cc(C(=O)N3CCN(c4cccc(Cl)c4)CC3)ccc2c1=O,-28%,/,-10,-1%,16,-9,-8%[15.4 µM]
CN(C1CCCCC1)S(=O)(=O)CCNC(=O)c1ccccc1,6%,-0.8%,/,/,-1,18,1%
